VACV mCherry inh – vaccinia inhibition (mCherry reporter); Vaccinia virus mCherry reporter infection, fluorescence; about a quarter of the inactives have no number; Potency, µM (doses to about 36.5 µM), for the others: top-dose activity change, negative = inhibition, actives largely listed as inhibitors; actives 0.63% (n = 310,000); AID 720579; active = well fitted inhibition curve with a large enough effect; inconclusive = small, poorly fitted or top-dose-only effect; inactive = no such curve, though single readings can be large or run the other way; tested in A549 cells; note: nearly all actives have a fitted effect of over 35% in size; inactives centre near -10
Vaccinia Venus – vaccinia inhibition (Venus reporter) | Vaccinia virus Venus reporter expression, fluorescence | Potency, µM (highest dose often 36.5 µM), without a hit: at the top dose activity change, negative = inhibition, actives largely listed as inhibitors | actives 0.46% (n = 330,000); active means well fitted inhibition curve with a large enough effect; inconclusive means small, poorly fitted or top-dose-only effect; inactive means no such curve, though single readings can be large or run the other way; tested in A549 cells; note: nearly all actives have a fitted effect of over 30% in size; inactives centre near -10
* hit, by the source's call; i = inactive; ? = inconclusive; · = not tested or not shown; & = joins results of further samples; [ ] = another dose, or the depositor's remark. % is set by controls: 0 for no effect and ±100 for the full control effect; potency is the fitted concentration of half-maximal effect.

SMILES	VACV mCherry inh	Vaccinia Venus
COc1ccc(-c2ccc3c(c2)[C@@H]2C[C@H]4[C@@H](C(=O)N2CC3)[C@H](C)ON4C)cc1	-24%	-4%
CCCN1CCC(=O)N(CCO)CC1	i	-1%
CCN(CCc1ccccc1)c1ccc2c(c1)C1CC2CCN1Cc1ccccc1 (centres undefined)	?	?
CCOc1ccc(-c2nc3c(c(SCC(=O)N4CCCCC4)n2)Cc2ccccc2O3)cc1	-8%	-7%
COc1ccc(OC)c(CNS(=O)(=O)c2cc(CN3C(=O)c4cccnc4C3=O)ccc2OC)c1	0%	-14%
O=C(CC1CCCCC1)OCn1nnc2ccccc2c1=O	0%	-2%
CCOC(=O)c1c(NC(=O)CSc2nnc(-c3cccc(C)c3)n2CC)sc(C(C)=O)c1C	·	?
O=C(CCC1CCCC1)Nc1cc(C(F)(F)F)ccc1N1CCOCC1	-13%	-3%
CCOC(=O)c1sc(N)nc1-c1ccccc1	2%	-7%
Cc1cccc(-n2c(Cc3ccccc3)nnc2SCc2nc(-c3cccs3)no2)c1	?	?
CCc1ccc(OC)c(S(=O)(=O)NCCOc2ccccc2)c1	-3%	-21%
COc1ccc(C(=O)C2CCCN(C(=O)c3cccs3)C2)cc1F (centres undefined)	-16%	-20%
Nc1nc(-c2ccccc2)c(N=Nc2ccccc2Cl)s1	-28%	?
CNC(=O)c1[nH]cnc1C(=O)Nc1ccccn1	i	-20%
Cc1ccccc1NC(=O)CCC(=O)N/N=C/c1cccnc1	-9%	-2%
CCCCN1CC(Br)C(=O)NC1=O (centres undefined)	i	-6%
CC1=C(C(=O)OC(C)C)C(c2cccs2)NC(=O)N1 (centres undefined)	i	-22%
COc1ccc(C(=O)NCC(c2ccccc2)c2ccccc2)cc1S(=O)(=O)N1CCOCC1	-3%	-5%
O=C(NCc1ccc2c(c1)OCO2)c1cc(-c2cc(Cl)ccc2O)n[nH]1	0%	-2%
O=c1cc(-c2ccccc2)nc2c(-c3ccccc3)c(C(F)(F)F)[nH]n12	i[7.34 µM]	-12%[7.34 µM]
Cn1nnnc1SCC(=O)NC1CCCc2ccccc21 (centres undefined)	-11%	-6%
CCOc1ccccc1C(=O)Nc1cc(C)ccc1NC(=O)c1ccco1	-13%	-19%
Cc1ccsc1CNC(=O)C1(C)CCN1C(C)C (centres undefined)	4%	0%
O=C(CNS(=O)(=O)c1ccc2ccccc2c1)OCc1csc(-c2ccccc2)n1	-3%	-18%
CCCCN1C(=O)C(CC(=O)NCC2CCCCC2)CC(C(=O)N(C(C)C)C(C)C)=C1C (centres undefined)	-3%	-20%
CC(C(=O)N(C)C)N(C#N)c1nc(N(C)C)nc(N(C)C)n1 (centres undefined)	·	-17%
O=c1[nH]cnc2c1sc1nc(-c3ccccc3)c3c(c12)CCCC3	i	-7%
COc1ccc(Cl)cc1-n1c(=S)sc2c(=O)[nH]c(SCC(=O)NCC3CCCO3)nc21 (centres undefined)	-1%	-6%
N#Cc1nc(-c2ccc(Cl)cc2)oc1NCCc1ccccn1	-8%	-4%
Cn1cccc1C(=O)N1CCN(S(=O)(=O)c2ccccc2)CC1	-13%	-4%
Cc1cc(C)c2[nH]c(=O)c(C(c3nnnn3Cc3ccc4c(c3)OCO4)N3CCC(C)CC3)cc2c1 (centres undefined)	·	0%
CCOc1ccc(CCNC(=O)c2sc3nc4n(c(=O)c3c2C)CCC4)cc1	15%[7.34 µM]	10%[7.34 µM]
Cc1ccc(NC(=O)c2csc3c2CCCC3)cc1	-8%	-16%
O=C(CSC1=NS(=O)(=O)c2ccccc2N1)Nc1nccs1	-7%	-6%
Cc1ccc(S(=O)(=O)c2nc(-c3ccco3)oc2N2CCC(C)CC2)cc1	-11%	-11%
Cc1ccc2nc(-c3ccccc3)c(NC(=O)c3ccco3)n2c1	·	-2%
CCOc1ccccc1Oc1coc2cc(O)ccc2c1=O	·	8%
Nc1ccccc1-c1ccccc1N	-3%	-9%
Cc1ccc(C)c(N2CCN(C(=O)CCc3nnc4n(CC(C)C)c(=O)c5ccccc5n34)CC2)c1	-24%	-20%
Cc1ccc(NC(=O)CCSc2nnc(Cc3ccccc3)o2)cc1	i	-9%
Cc1ccc(S(=O)(=O)NCc2ccncc2)cc1C	i	-22%
COC(=O)c1cnc2ccccc2n1	-6%	-5%
O=C1N=c2ccccc2=C1c1sc(=S)n(NC(=O)c2ccccc2)c1O	-13%	-14%
Nc1cc(N)nc(SCC(=O)NC(=O)NC2CCCC2)n1	i	-11%
COCCNC(=O)Cn1nc(Cc2ccncc2)c2ccccc2c1=O	i	7%
O=C(CCC(=O)N1CCOc2ccc(Cl)cc21)N1CCN(c2ccccn2)CC1	-26%	?
CN(C)S(=O)(=O)c1ccc(Cl)c(NC(=O)COC(=O)c2cc(-c3ccccc3)nc3ccccc23)c1	-16%	-9%
COc1ccc2nc(NC(=O)C3CCCN(S(=O)(=O)c4cccs4)C3)sc2c1 (centres undefined)	·	?

Next part; it opens with the two that closed the last part.
SMILES	VACV mCherry inh	Vaccinia Venus
CN(C)S(=O)(=O)c1ccc(Cl)c(NC(=O)COC(=O)c2cc(-c3ccccc3)nc3ccccc23)c1	-16%	-9%
COc1ccc2nc(NC(=O)C3CCCN(S(=O)(=O)c4cccs4)C3)sc2c1 (centres undefined)	·	?
Cc1cc(NC(=O)COC(=O)CCS(=O)(=O)c2cc(Cl)ccc2Cl)no1	-18%	-7%
O=C(Cc1c(F)cccc1Cl)Nc1ccc(S(=O)(=O)Nc2nccs2)cc1	7%	-2%
O=C(Nc1nnc(-c2ccco2)o1)c1ccc(S(=O)(=O)N2CCOCC2)cc1	i	5%
COc1ccccc1N1CCN(c2ccc3c(c2)S(=O)(=O)c2cccc(C(=O)NCc4cccc(F)c4)c2C3=O)CC1	?	-21%
OC[C@@H]1CN(CCN2CCOCC2)C[C@H](n2cnc3c(Nc4ccccc4)ncnc32)O1	i	-3%
O=C(c1cnc2sccn2c1=O)N1CCCc2ccccc21	-11%	6%
Cc1oc2ncn(CC(C)C)c(=O)c2c1C(=O)N(CCN(C)C)Cc1ccccc1	-15%	1%
COc1ccc(C)cc1NC(=O)CCNC(=O)Cn1ccc2ccccc2c1=O	-23%&-6%	-15%&-2%
Oc1ccc(Cl)cc1/C=C/c1ccc2cccc(O)c2n1	?	2%
COc1cc(/C=C2\SC(c3ccccc3)=NC2=O)cc(Cl)c1O	59%[activator]	26%
O=C(CCc1ccccc1)Nc1ccc(NC(=O)C2CC2)nc1	-16%	-5%
CCCCOc1ccc(C(=O)NCCc2csc(-c3ccc(OC)cc3)n2)cc1	?	?

Laid out differently: entries from further up.
> COc1ccc(C)cc1NC(=O)CCNC(=O)Cn1ccc2ccccc2c1=O
  VACV mCherry inh: -23%&-6%; Vaccinia Venus: -15%&-2%

> Oc1ccc(Cl)cc1/C=C/c1ccc2cccc(O)c2n1
  VACV mCherry inh: ?; Vaccinia Venus: 2%

> COc1cc(/C=C2\SC(c3ccccc3)=NC2=O)cc(Cl)c1O
  VACV mCherry inh: 59%[activator]; Vaccinia Venus: 26%

> O=C(CCc1ccccc1)Nc1ccc(NC(=O)C2CC2)nc1
  VACV mCherry inh: -16%; Vaccinia Venus: -5%

Remaining list, next part
SMILES	VACV mCherry inh	Vaccinia Venus
CC(C(=O)NN)c1ccc([N+](=O)[O-])cc1 (centres undefined)	-6%	-11%
Fc1cccc(Cc2c(-c3ccc(Cl)cc3)nc3ccc(Br)cn23)c1	i	-4%
COc1ccc(S(=O)(=O)NCC(=O)N(CC(=O)NC(C)(C)C)Cc2cccs2)cc1	-3%	-12%
O=S(=O)(NC1=NCCC1)c1ccc(F)cc1	-16%	-6%
C[C@H]1CN([C@@H](C)CO)S(=O)(=O)c2ccc(-c3ccccc3)cc2O[C@H]1CN(C)C(=O)C1CCC1	1%	-29%
NNC(=O)CSc1c(-c2ccccc2)c2cc(Cl)ccc2[nH]c1=O	-19%	-24%
NS(=O)(=O)c1ccc(N/N=C/c2ccc(O)c(O)c2O)c([N+](=O)[O-])c1	?	-4%
Cc1ccnc(N(C(=O)Nc2ccccc2)C2=NCC(C)(C)S2)c1	-11%	-7%
CC(C)CNS(=O)(=O)c1ccc(CCC(=O)Nc2ccc3c(c2)OCCO3)cc1	·	-21%
COc1ccc(CNC(=O)C/C(C)=N/NC(=O)COc2ccccc2)cc1	-3%	-8%
COc1ccc(-c2nnc(NC(=O)c3ccccc3[N+](=O)[O-])s2)c(OC)c1	-4%	-14%
CCCn1c(SCC(=O)N2c3ccccc3CC2C)nnc1-c1ccco1 (centres undefined)	-9%	-25%
CCOc1ccc(OCC)c(NS(=O)(=O)c2ccc(-c3coc(C)n3)cc2)c1	?	-25%[7.34 µM]
O=C(CCN1CCN(c2ccccc2)CC1)NNC(=O)c1cccc2ccccc12	-11%	-8%
Cc1ccsc1/C=C1\SC(=S)N(CC2CCCO2)C1=O (centres undefined)	i	5%
CC(=O)c1cccc(NC(=O)CNC(=O)c2sc3ccccc3c2Cl)c1	-14%	-9%
CCc1nc(C#N)c(N2CCCCC2)o1	-11%	0%
C=CCCCCCCCCC(=O)NN	-6%	-14%
Cc1cc(C)n2nc(C)c(Br)c2n1	-6%	2%
CCSc1nnc2n1C(C)(C)Cc1ccccc1-2	-5%	-13%
O=C(CSc1cn[nH]n1)Nc1ccc(O)c(C(=O)O)c1	-5%	3%
COC(C(=O)Nc1ccnn1C1CCN(Cc2ccc(C)o2)CC1)c1ccccc1 (centres undefined)	-14%	-10%
CC(NC(=O)c1cccs1)c1n[nH]c(=S)n1C (centres undefined)	i	-2%
O=C(O)C1C2CCC1C(O)C2 (centres undefined)	-12%	-15%
CNC[C@H]1Oc2c(NS(=O)(=O)c3ccc(F)cc3)cccc2C(=O)N([C@H](C)CO)C[C@@H]1C	-18%	-3%
COc1ccc(C2=NS(=O)(=O)N(C)C(C(=O)NC3CCCC3)=C2)cc1OC	36%[activator]	-3%
CC(NS(=O)(=O)c1cccc(S(=O)(=O)c2ccccc2)c1)C(=O)O (centres undefined)	-17%	-2%
Cn1c(=O)c2c(n(C)c1=O)=NC1(CCCCC1)N=2	-11%	4%
O=C(COc1ccc([N+](=O)[O-])cc1)N1CCc2ccccc2C1	-19%	-4%
Cc1ccc(N(CC(=O)NCc2ccco2)C(=O)CCC(=O)Nc2nccs2)cc1C	i	-8%
CC1(C)C=C2[C@H]3CC[C@@H]4[C@@]5(C)CCC(=O)C(C)(C)[C@@H]5CC[C@@]4(C)[C@]3(C)CC[C@@]2(C(=O)O)CC1	?	?
Cc1ccc(NS(=O)(=O)c2c(C)[nH]c(C)c2C(=O)N2CCCC2)cc1	i[7.34 µM]	-16%[7.34 µM]
CCn1nc(C)c2c(-c3ccccc3)cc(=O)n(C(C)C(=O)Nc3ccc(OC)c(OC)c3)c21 (centres undefined)	-6%	3%
O=C(Nc1cccc2cccnc12)c1ccccc1Cl	-27%[7.34 µM]	-9%[7.34 µM]
Cc1ccc(N=C2NC(=O)CS2)c(C)c1	·	-17%
CC(=O)c1ccc(NC(=O)C2CCCN(S(=O)(=O)c3ccc(-n4cnnn4)cc3)C2)cc1 (centres undefined)	-10%	4%

One compound at a time, from the list above. Values in the order: VACV mCherry inh | Vaccinia Venus
Shown for CC(=O)c1cccc(NC(=O)CNC(=O)c2sc3ccccc3c2Cl)c1 → -14% | -9%
Shown for CCOc1ccccc1C(=O)Nc1cc(C)ccc1NC(=O)c1ccco1 → -13% | -19%
Shown for Cc1cc(NC(=O)COC(=O)CCS(=O)(=O)c2cc(Cl)ccc2Cl)no1 → -18% | -7%
Shown for C[C@H]1CN([C@@H](C)CO)S(=O)(=O)c2ccc(-c3ccccc3)cc2O[C@H]1CN(C)C(=O)C1CCC1 → 1% | -29%
Shown for CCOC(=O)c1c(NC(=O)CSc2nnc(-c3cccc(C)c3)n2CC)sc(C(C)=O)c1C → · | ?

The listing continues.
SMILES	VACV mCherry inh	Vaccinia Venus
Cc1cc(C)c(NC(=O)C2CCCCN2C)c(C)c1 (centres undefined)	-10%	-3%
Cn1c(=O)c2c(nc(N/N=C/c3ccc(OC(=O)c4ccco4)cc3)n2Cc2ccccc2)n(C)c1=O	-2%	-3%
CCOC(=O)C(NC(=O)Nc1ccc(F)cc1F)(Oc1ccc(F)cc1)C(F)(F)F (centres undefined)	-13%	-4%
CC1=NN(C(C#N)c2ccccc2C)C(C)(C)C1 (centres undefined)	i	5%
C=CCn1c(CNC(=O)CCC)nc2ccccc21	i	0%
Cc1cc(NC(=O)CN(C)CC(=O)Nc2ccc(F)c(F)c2F)no1	-12%	-9%
O=C(Cc1ccccc1)NCCN1CCCC1	-14%	-8%
COc1ccc(C(=O)N2CCN=C2SCc2cccnc2)cc1OC	i	-13%
CCC(C(=O)NCC1CCCO1)N(Cc1ccccc1)C(=O)CNS(=O)(=O)c1ccccc1 (centres undefined)	1%	-1%
CCn1nc(C)cc1-c1nnc(SCC(=O)Nc2ccccc2)n1CCCOC	i	3%
Cc1cc(NC(=O)c2cc(-c3ccccc3Cl)nc3ccccc23)no1	-12%	-14%
Cc1ccc(C2c3[nH]c4ccccc4c3C[C@H]3C(=O)N(c4ccccc4C(=O)N4CCC[C@H]4C(=O)O)C(=O)N23)cc1 (some centres undefined)	1%	6%
O=C(c1cc(C2CC2)nn1-c1ccccc1)N1CCN(S(=O)(=O)c2ccccc2)CC1	-14%	-2%
CCC(C)NC(=O)CSc1nc2ccccc2c(=O)n1-c1c(C)n(C)n(-c2ccccc2)c1=O (centres undefined)	-7%	-23%
CCOC(=O)C1CCNC(=O)C1=O (centres undefined)	i	-9%
COCCNC(=O)CSc1nc(-c2ccc(C)cc2)[nH]c1-c1ccc(OC)cc1	-16%	-8%
CC1CCc2c(sc3nc(SCC(=O)O)n(-c4ccccc4)c(=O)c23)C1 (centres undefined)	-9%	-1%

The order is random (roughly 0.88% active in at least one column).
